Bioassay records as filed in PubChem BioAssay.
Rce1 inh = yeast Rce1p protease inhibitors, primary screen, biochemical, fluorescence, cell-free homogeneous; CAAX prenyl protease 2 (Saccharomyces cerevisiae (strain ATCC 204508 / S288c)), Q03530; yeast membranes, quenched prenylated peptide cleavage fluorescence; calls only; 290,000 tested, 0.27% active;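 active means fall in fluorescence gain of 50% or more versus controls, with final raw signal at or below 3038400; inconclusive means same 50% fall but final raw signal above 3038400; inactive means fall in fluorescence gain under 50%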;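 further: plate controls were neutral control wells for no effect and wells lacking membranes for full effect; tested at 10 µM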
Target sequence (Q03530 whole entry, looked up): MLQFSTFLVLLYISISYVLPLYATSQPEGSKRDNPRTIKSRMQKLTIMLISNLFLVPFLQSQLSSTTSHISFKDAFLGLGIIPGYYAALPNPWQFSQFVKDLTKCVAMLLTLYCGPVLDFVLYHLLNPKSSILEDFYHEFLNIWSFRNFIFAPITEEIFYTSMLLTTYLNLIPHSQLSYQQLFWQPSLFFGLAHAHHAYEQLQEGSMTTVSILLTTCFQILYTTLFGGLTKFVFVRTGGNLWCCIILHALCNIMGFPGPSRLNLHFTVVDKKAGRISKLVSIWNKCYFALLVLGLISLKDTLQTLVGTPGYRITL
Env fusion inh = inhibitors of HIV-1 Env-driven cell-cell fusion, primary screen, HeLa-JRFL effector, CEM21 target cells, luciferase | inhibition, % at 12.3 µM | 360,000 tested, 1.1% active | AID 651610, 2012;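 active means mean replicate inhibition score of at least 50 and every replicate individually at or above 50; inconclusive means only one of the two criteria met; inactive means mean below 50 and not all replicates reaching 50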;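 further: 0% = plate neutral controls and 100% = maraviroc near 300 nM; one replicate is shown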
PABP FP inh = PABP poly(A) RNA binding inhibitors, primary screen, biochemical, fluorescence polarization, uHTS; Polyadenylate-binding protein 1 (Homo sapiens), P11940; AID 2014, 2009; inhibition, % at 35 µM; 290,000 tested, 1% active;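 active means 50% or more with normal probe brightness, or confirmed in later tests; inconclusive means above 50% with abnormal brightness, or retests that disagree; inactive means below 50% or failed in later tests; about a fifth of its hits are not listed in these tables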;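 further: calls also rest on retests at 20 µM and on dose response follow-up; controls were probe without protein and protein plus probe with vehicle; some compounds called inactive have numbers as strong as hits; many hits fall short of the cut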
eIF4H FP inh = human eIF4H binding inhibitors, primary screen, translation initiation inhibitor project, biochemical, uHTS, fluorescence polarization; eIF4H fluorescence polarization binding assay; inhibition, % at 35 µM; 290,000 tested, 0.94% active;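 active means 50% or more with normal probe brightness, or confirmed in later tests; inconclusive means above 50% with abnormal brightness, or retests that disagree; inactive means below 50% or failed in later tests; about a fifth of its hits are not listed in these tables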;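 further: calls also rest on retests at 20 µM and on dose response follow-up; 0% = protein and probe with vehicle and 100% = probe without protein; strong numbers were not always called active; many hits fall short of the cut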
MT1-MMP act inh = blockers of MT1-MMP proenzyme processing, primary screen, HT1080 RFP-PRO-GFP cells, GFP/RFP fluorescence. 360,000 tested, 0.061% active. GFP/RFP ratio change, % at 20 µM. AID 651647, 2012. GFP/RFP ratio fluorescence, overnight; percent of plate control window, DMSO zero;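 active means GFP/RFP ratio change of at least 30% with cell ATP level not reduced by more than half and red fluorescence within 50% of control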; further: strong numbers were not always called active
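Assay system: HT1080 RFP-PRO-GFP cells. Benchmarks: DMSO vehicle wells and RFP-L50D-GFP reporter cell wells. Times: overnight cell settling, then overnight compound exposure, 37 °C, 5% CO2. Compound: 20 µM single dose, 1% DMSO. Read-out basis: GFP/RFP fluorescence ratio.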
CSC inhib = cancer stem cell viability inhibitors, primary screen, luminescence; AID 2717, 2010; inhibition, % at 7.5 µM; cancer stem cell-like cells viability; 300,000 tested, 1.1% active;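 active means mean at 75% or more and at least half the replicates too; inconclusive means mean and replicates disagree; tested in HMLE shEcad cells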;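 further: 0% = median of negative and 100% = median of positive control wells; the first replicate is given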
UUG fidelity = modulators of yeast start codon fidelity, primary screen, whole organism, S. cerevisiae, single point, plate reader | activity score, % at 18.7 µM | 350,000 tested, 0.13% active | S. cerevisiae UUG-firefly luciferase reporter, luminescence/redox ratio;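 active means replicate mean at a twofold rise or more, about +100% in these data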;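 further: firefly luciferase made from a UUG start codon reports start codon fidelity; reporter light over untreated wells divided by growth signal over untreated wells; some hits fall short of that in this replicate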
MT1-MMP act inh RFP = recorded beside MT1-MMP act inh, whose call it bears; RFP signal change, %; measured here: RFP expression control read;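 0 = vehicle wells; hits needed this value within 50% of zero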
The depositor's hits bear a star; i = inactive; u = inconclusive; x = no result given; & = joins results of further samples. These rows are one share of the data; rates above refer to the full screens.

Start of the data: the first 2 entries (preview)
#	molecule	Rce1 inh	eIF4H FP inh	MT1-MMP act inh	PABP FP inh	CSC inhib	MT1-MMP act inh RFP	UUG fidelity	Env fusion inh
1	O=c1c2cc3c(=O)n(CC4CCCO4)c(=O)c3cc2c(=O)n1CC1CCCO1 (stereo not given)	i	-3	4	4	-8	1	-8	x
2	CC(C)N=C(NS(=O)(=O)c1ccccc1)C(Cl)(Cl)Cl	i	-2	1	7	-2	-8	-17	-107

This part in full (from the top)
#	molecule	Rce1 inh	eIF4H FP inh	MT1-MMP act inh	PABP FP inh	CSC inhib	MT1-MMP act inh RFP	UUG fidelity	Env fusion inh
1	O=c1c2cc3c(=O)n(CC4CCCO4)c(=O)c3cc2c(=O)n1CC1CCCO1 (stereo not given)	i	-3	4	4	-8	1	-8	x
2	CC(C)N=C(NS(=O)(=O)c1ccccc1)C(Cl)(Cl)Cl	i	-2	1	7	-2	-8	-17	-107
3	C[C@H](CO)N1C[C@H](C)[C@@H](CN(C)C(=O)NC2CCCCC2)Oc2ccc(NS(=O)(=O)c3cccs3)cc2C1=O	x	x	3	x	x	5	23&6	7
4	CCS(=O)(=O)C1=NN2C(=N)/C(=C\c3ccc(OS(=O)(=O)c4ccccc4)c(OC)c3)C(=O)N=C2S1	i	8	x	13	-1	x	x	x
5	Cc1ccc(S(=O)(=O)N2CCN(c3c([N+](=O)[O-])cc(C(F)(F)F)cc3[N+](=O)[O-])CC2)cc1	i	-1	-6	-2	18	-12	-14	9
6	CC(OC(=O)C1=COCCO1)C(=O)NC1(C#N)CCCCC1 (stereo not given)	x	x	0	x	-1	0	-9	23
7	Cc1ccccc1/C=N\NC(=O)c1ccc(Cn2cccn2)o1	i	11	6	0	-16	3	x	x
8	O=C(O)c1ccccc1OCc1nc2ccccc2s1	i	3	-5	9	13	-1	-25	-82
9	CC(C)C(NS(=O)(=O)c1cccs1)C(=O)N(C)Cc1ccccc1 (stereo not given)	i	-11	-5	-4	-12	2	-14	x
10	Cc1ccccc1-n1c(C)nc2ccccc21	i	-4	1	-1	-11	-1	-19	-127
11	Cn1c2c(c(=O)n(C)c1=O)C(NC(=O)c1ccco1)(C(F)(F)F)C(=O)N2 (stereo not given)	i	0	-2	-4	9	3	1	x
12	Cc1cc(Br)ccc1NC(=O)CNC(=O)CSc1ncccn1	x	x	0	x	8	8	-18	7
13	NC(=O)CC1(CC(=O)O)CCCCC1	i	-6	-5	6	-11	-1	-9	-118
14	COCCCNC(=O)Cn1c(=O)n(Cc2ccccc2Cl)c(=O)c2cc(OC)c(OC)cc21	i	9	-4	6	-7	0	-2	-1
15	CCCCn1c(N)c(N(CCOC)C(=O)CCc2ccc(OC)cc2)c(=O)[nH]c1=O	i	0	1	5	-1	-5	x	x
16	COCCN(C(=S)Nc1cccc(C)c1)C(C)c1cccs1 (stereo not given)	i	-7	-2	-11	-11	4	x	-4
17	CCN(CC)S(=O)(=O)c1ccc(NC(=O)c2cc(-c3ccccc3)nc3ccccc23)cc1	i	-14	9	1	7	-1	1	-8
18	Cc1cc(C(=O)N/N=C/c2cccn2C)no1	i	4	2	7	-4	5	x	-3
19	COC(=O)[C@]1(Cc2ccccc2)N[C@H](c2ccc(-c3ccc(Cl)c(Cl)c3)cc2)[C@@H]2C(=O)N(C)C(=O)[C@@H]21	i	x	2	x	6	-11	-13	11
20	CC(C)CNS(=O)(=O)c1ccc(CCC(=O)Nc2cc(Cl)ccc2Oc2ccccc2)cc1	i	-5	-2	-10	27	-26	-21	x

Other structures
#	molecule	Rce1 inh	eIF4H FP inh	MT1-MMP act inh	PABP FP inh	CSC inhib	MT1-MMP act inh RFP	UUG fidelity	Env fusion inh
21	Cc1cccc(C(=O)N[C@H](C(=O)Nc2nc3ccccc3[nH]2)C(C)C)c1	x	-2	10	-3	69	-4	x	-222
22	O=C(c1cccc(Cl)c1)N1CCN(C2CCCCC2)CC1	i	18	4	19	-1	4	-6	-19
23	N#Cc1c(F)cccc1NCCCn1ccnc1	i	x	1	x	2	1	1	-20
24	O=C(NCc1ccco1)c1cnn2cccnc12	i	-8	-4	-7	-10	-3	-13	-3
25	CCc1ccccc1NC(=O)C1CCCN1C(=O)Nc1ccc(C)cc1 (stereo not given)	i	2	-3	6	-4	0	-21	-7
26	CN1CCN(S(=O)(=O)c2ccc(C3CCCCC3)cc2)CC1	x	x	5	x	x	-3	-17	1
27	COc1cccc(NC(=O)C2CC(=O)n3cnnc3S2)c1 (stereo not given)	x	-10	1	9	x	4	-35	5
28	COc1cc(CN2CCC(C(=O)NC3CCCC3)CC2)cc(OC)c1O	i	-5	-4	17	-16	-2	-15	-16
29	O=C(CCC1CCCCC1)NCc1ccccn1	i	7	-2	-6	-9	-3	-24	-21
30	COc1ccc(O[C@H]2C=C[C@@H](c3ccccc3)O[C@@H]2COC(=O)CC/C(C)=N/O[C@H](C)c2cn([C@@H]3COC[C@H]3O)nn2)cc1	i	-6	x	-6	-8	x	x	x
31	COc1ccc(C2=Nn3c(nnc3-c3ccccn3)SC2)cc1OC	i	-6	8	0	-17	-1	-21	-18
32	CCOC(=O)C1CCCN(c2nc(C)nc3c2oc2ccccc23)C1 (stereo not given)	i	-3	2	12	x	-2	x	27
33	O=C1CCCC2=C1C(c1ccsc1)CC(=O)N2c1nnc(SCc2ccccc2)s1 (stereo not given)	x	1	0	4	x	-2	12	14
34	CN(C)CC/C=C1\c2ccccc2Sc2ccc(Cl)cc21	i	1	-7	0	8	-12	0	4
35	O=c1c2ccccc2sc2ccccc12	x	x	-8	x	x	-5	-15	-34
36	Cc1ccc(N2C(=O)CC(Sc3nc(-c4ccccc4)c4cc(Cl)ccc4n3)C2=O)c(C)c1 (stereo not given)	i	-6	-3	10	-2	-2	-20	3
37	CCCc1cc(=O)oc2c(C)c(OCC(=O)NC3CC(C)(C)NC(C)(C)C3)ccc12	i	x	-1	x	1	0	5	6
38	Cc1ccccc1CN(c1ccc(C(=O)Nc2ccccc2C(=O)NCc2ccco2)cc1)S(C)(=O)=O	i	-2	0	10	-8	-10	6	61*
39	Cc1ccc(CNC(=O)C(Cc2ccccc2)NS(=O)(=O)c2ccc3c(c2)CCC(=O)N3)cc1 (stereo not given)	i	7	1	-5	-6	-2	-10	-48
40	Cc1ccc(NC2CCCN(C(=O)c3c(C)noc3C)C2)cc1C (stereo not given)	i	-3	1	-10	-1	0	-12	2

New compounds follow
#	molecule	Rce1 inh	eIF4H FP inh	MT1-MMP act inh	PABP FP inh	CSC inhib	MT1-MMP act inh RFP	UUG fidelity	Env fusion inh
41	CCOC(=O)c1c(C)[nH]c2c1-c1ccccc1C(=O)C2=O	i	-11	-29	-4	x	-35	x	59*
42	COc1cccc(-c2nc(CS(=O)(=O)CC(=O)N3CCc4ccccc4C3)c(C)o2)c1	i	-3	5	-10	-14	-1	-1	2
43	Oc1cc2c(cc1O)CN(C(=S)NCCc1ccc(Cl)cc1)CCC2	x	x	-1	x	22	-11	-46	-14
44	C[C@H](NC(=O)OC(C)(C)C)C(=O)NCC1CCC(C(=O)N[C@@H](Cc2ccccc2)C(=O)O)CC1 (stereo not given in full)	i	8	4	5	-6	-2	-29	-33
45	CC[C@@H]1CN(C)[C@H]2Cc3c([nH]c4ccccc34)C(=O)C[C@@H]1[C@@H]2C(=O)OC	i	x	-5	x	-3	1	-13	x
46	O=C(NNc1ccc([N+](=O)[O-])cc1)c1ccccc1F	x	5	-2	-3	x	5	x	3
47	COc1ccccc1N=c1oc2cc(O)ccc2cc1C(N)=O	u	27	-25	47	u	-9	-26	-57
48	CN(C)C(=O)c1ccc(NC(=O)c2cc(-n3cnnc3)ccc2Cl)cc1	i	-8	-1	3	-8	-1	x	13
49	Cc1ccc(OCCC(=O)OCC(=O)Nc2cc(S(=O)(=O)N(C)C)ccc2C)cc1	i	-1	0	-8	-3	4	x	-11
50	O=C(Nc1ccc2snnc2c1)N1CCSCC1	i	-9	4	-4	-1	2	-11	-27
51	Cc1ccc(NC2=C(NC(=O)c3ccccc3)C(=O)c3ccccc3C2=O)cc1Cl	i	-6	-9	3	0	-11	-9	7
52	O=C(NCc1cccnc1)c1ccc(NC(=O)c2ccc(Br)cc2)cc1	i	-2	5	0	85*	-10	-13	-3
53	O=C(O)C1=C(C(=O)Nc2cccc(C(F)(F)F)c2)CCCC1	i	-1	4	-3	x	2	x	-1
54	COc1ccc(CCNC(=O)CC2SC(=Nc3cc(C)cc(C)c3)NC2=O)cc1OC (stereo not given)	i	-1	-4	-1	-17	0	x	13
55	Cc1ccc(C(=O)N2CCCCC2C(=O)O)o1 (stereo not given)	i	-8	-1	2	-2	2	2	-10
56	Nc1ccn(CC(=O)N2CCN(c3ccccn3)CC2)c(=O)n1	x	x	2	x	-19	5	-9	15
57	COc1ccc(CN2CCCC(C(=O)Nc3cccc(-n4cccn4)c3)C2)c(F)c1 (stereo not given)	i	-7	-1	-12	5	0	-10	2
58	Cc1noc(C)c1COc1cccc(C(=O)N(C)Cc2nc3ccccc3c(=O)[nH]2)c1	x	x	4	x	4	-3	15	x
59	O=C1CC2(CON=C2c2ccc(F)cc2)C(=O)N1c1ccc(F)cc1 (stereo not given)	i	-2	5	3	-7	8	-22	x
60	COc1ccc(-c2noc(CSc3nc4ccccc4c(=O)n3-c3ccccc3)n2)cc1	i	-7	5	-6	x	-1	-13	22

Random excerpt: 6 records from the list
#	molecule	Rce1 inh	eIF4H FP inh	MT1-MMP act inh	PABP FP inh	CSC inhib	MT1-MMP act inh RFP	UUG fidelity	Env fusion inh
24	O=C(NCc1ccco1)c1cnn2cccnc12	i	-8	-4	-7	-10	-3	-13	-3
3	C[C@H](CO)N1C[C@H](C)[C@@H](CN(C)C(=O)NC2CCCCC2)Oc2ccc(NS(=O)(=O)c3cccs3)cc2C1=O	x	x	3	x	x	5	23&6	7
9	CC(C)C(NS(=O)(=O)c1cccs1)C(=O)N(C)Cc1ccccc1 (stereo not given)	i	-11	-5	-4	-12	2	-14	x
44	C[C@H](NC(=O)OC(C)(C)C)C(=O)NCC1CCC(C(=O)N[C@@H](Cc2ccccc2)C(=O)O)CC1 (stereo not given in full)	i	8	4	5	-6	-2	-29	-33
32	CCOC(=O)C1CCCN(c2nc(C)nc3c2oc2ccccc23)C1 (stereo not given)	i	-3	2	12	x	-2	x	27
15	CCCCn1c(N)c(N(CCOC)C(=O)CCc2ccc(OC)cc2)c(=O)[nH]c1=O	i	0	1	5	-1	-5	x	x

Remaining list, next part:
#	molecule	Rce1 inh	eIF4H FP inh	MT1-MMP act inh	PABP FP inh	CSC inhib	MT1-MMP act inh RFP	UUG fidelity	Env fusion inh
61	O=C(Nc1ccc(Cl)cc1)OCCN1CCOCC1	x	x	3	x	x	-6	-10	4
62	COc1ccc(-n2nc3cc(C)c(N)c(Br)c3n2)cc1	i	-1	-6	22	12	1	-11	x
63	COc1cc(C(=S)N2CCCCC2)ccc1OCC(=O)N1CCCC1	x	-8	-1	-11	-3	-3	-19	21
64	Cc1cc(F)ccc1NC(=O)c1ccc(NS(=O)(=O)c2cc(C(C)(C)C)ccc2C)cc1	i	-7	-2	-18	47	-4	x	-5
65	COC(=O)c1ccc(Oc2c(C)oc3c(CN4CCN(C)CC4)c(O)ccc3c2=O)cc1	u	-3	-1	0	x	-1	-22	-15
